miR-21 reporter = miR-21 reporter, rising signal; HeLa miR-21 FLuc reporter, luciferase, 48 h; Potency, µM (titrated, usually from 38.3 µM), without a hit: top-dose reporter change, positive = more light; 340,000 tested, under 10 active; AID 2288; active = well fitted rising curve with a large enough effect; inconclusive = small, poorly fitted or top-dose-only effect; inactive = no such curve, though single readings can be large or run the other way;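 further: % of control where 0% means no effect; miR-21 action dims this reporter so a rising signal means less miR-21 action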
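Luminescence from a firefly luciferase reporter carrying a miR-21 binding site downstream, stably expressed under a CMV promoter in HeLa cells that make miR-21 endogenously, reports miRNA modulation after 48 h compound exposure up to approximately 40uM final.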
* = called active by the depositor; ? = inconclusive.

SMILES | miR-21 reporter
CCC1CCCCN1CCCNC(=O)c1ccc2c(c1)N(Cc1cccc(Cl)c1)C(=O)c1ccccc1S2(=O)=O (stereo not given) | 12%
CCc1ccccc1NC(=O)Cn1nnc2sc3c(c2c1=O)CCC(C(C)(C)C)C3 (stereo not given) | -1%
O=S(=O)(NCCc1csc(-c2ccc(F)cc2)n1)c1ccc(Cl)cc1 | 19%
CCOc1ccc(CCNC(=O)Cn2ccc3cc(S(=O)(=O)N4CCCCCC4)ccc32)cc1 | 12%
Cc1ccc(C2C=C(c3ccccc3)Nc3nc(NS(=O)(=O)c4ccccc4)nn32)cc1 (stereo not given) | -1%
O=C(NCCS(=O)(=O)N1CCN(c2ccccc2F)CC1)C(c1ccccc1)c1ccccc1 | -2%
Cc1ccc(C(=O)NCc2ccc(F)cc2)cc1NC(=O)c1nsc2ccccc12 | -1%
O=C(Nc1ccc(-c2nc3cc(NC(=O)c4ccccc4F)ccc3o2)cc1)c1ccccc1F | 8%
Cc1ccc(CNC(=O)CSc2ccc(-c3sc(-c4ccccc4)nc3C)nn2)cc1 | -2%
CC1CCc2c(sc3nc(-c4cc5ccccc5oc4=O)nc(Cl)c23)C1 (stereo not given) | -10%
CCOC(=O)c1c(C)[nH]c(C)c1S(=O)(=O)N1CCC(C(=O)NCc2cccc(OC)c2)CC1 | 0%
CCc1ccccc1OCCSc1nnc(-c2cc(OC)c(OC)c(OC)c2)o1 | -5%
COc1ccc(-c2cc(C(F)(F)F)nc(SCC(=O)NCCc3ccccc3)n2)cc1OC | -22%
COc1ccc(Cl)cc1NC(=O)CN1Cc2ccccc2C1=O | 3%
CCCCCC(=O)Nc1ccc(NC(=O)c2cc3ccccc3o2)c(OC)c1 | -34%
COc1cc(OC)c(NC(=O)CN2C(=O)CCn3nc(-c4cccn4C)cc32)cc1Cl | 0%
CCOc1ccc(-c2nnc(SCC(=O)Nc3cccc(C#N)c3)o2)cc1 | -4%
O=C(c1ccccc1)N1CCN(CCc2ccncc2)CC1 | 1%
Cn1c(=O)c2c(ncn2CC(=O)Nc2cccc(C(F)(F)F)c2)n(C)c1=O | -11%
O=C(c1ccco1)n1nc(-c2ccccc2)nc1NCc1ccc(F)cc1 | -7%
COc1cc(OC)c(NC(=O)N2CC=C(c3c[nH]c4ccccc34)CC2)cc1Cl | -9%
N#Cc1c(-c2ccccc2)cc(-c2ccccc2)nc1SCC(O)CS(=O)(=O)Cc1ccc(Cl)cc1 (stereo not given) | 9%
O=C(COc1ccc(Cl)cc1)Nc1ccc(-c2nc3cc(Cl)ccc3o2)c(O)c1 | -67%
COc1ccc2c(c1)c(=O)c(S(=O)(=O)c1ccc(C)c(C)c1)cn2CC(=O)Nc1ccccc1 | 2%
CCN1CCN(c2c(S(=O)(=O)c3ccc(C)c(C)c3)cnc3cc(OC)c(OC)cc23)CC1 | 20%

Reformatted: entries from further up
miR-21 reporter | SMILES
-67% | O=C(COc1ccc(Cl)cc1)Nc1ccc(-c2nc3cc(Cl)ccc3o2)c(O)c1
0% | COc1cc(OC)c(NC(=O)CN2C(=O)CCn3nc(-c4cccn4C)cc32)cc1Cl

(listing goes on)
SMILES | miR-21 reporter
Cc1ccc(CNC(=O)c2sc3nc(-c4ccccc4)cn3c2C)cc1 | -7%
COc1cc(Cl)c(C)cc1NC(=O)c1cc2c(s1)-c1c(C)cccc1OC2 | -4%
C=Cc1ccc(Cn2c(C)c(CNCCc3ccc(OCC)cc3)c(C(=O)O)c2C)cc1 | 13%
COc1cc(NC(=O)CN2C(=O)C(c3ccc(C)cc3)=NC23CCCCCC3)cc(OC)c1 | -1%
Cc1cccc(N2CC(C)Cn3c2nc2c3c(=O)n(CC(=O)O)c(=O)n2C)c1 (stereo not given) | -1%
Cc1ccc(-n2c(SCCC(C)C)nc3sc4c(c3c2=O)CC(C)(C)OC4)cc1 | 0%
Cc1ccc(-c2nc3c4ccccc4n(CC(=O)N4CCN(c5ccccc5F)CC4)c(=O)n3n2)cc1 | 4%
COc1ccc(OCC(=O)NCc2ccc3c(c2)CCN3C(=O)c2ccc(F)cc2)cc1 | ?
O=C(Nc1onc2c1CCCC2)c1ccccc1 | 0%
COc1ccccc1-c1c(C)nn2c(N3CCN(c4cccc(Cl)c4)CC3)cc(C)nc12 | 7%
COc1cccc(-c2nc3c(C#N)c[nH]n3c2NC2CCC(C)CC2)c1 (stereo not given) | 9%
Cc1cc(NC(=O)CN(C)S(=O)(=O)c2ccc3c(c2)CCC(=O)N3)ccc1Br | ?
CCOc1ccccc1NC(=O)n1ncc2cc(Cl)ccc21 | 12%
Cc1cc(C)cc(Nc2nc3c(S(=O)(=O)c4cccc(Cl)c4)nnn3c3ccsc23)c1 | -3%
CCOC(=O)c1c(C)oc2ncnc(NCCc3ccccc3)c12 | -15%
O=C(O)Cn1c(-c2cccs2)cc2cc(Cl)ccc21 | -4%
COc1ccc(CNC(=O)c2cnc(N(C)C)nc2)cc1 | -7%
COc1ccc(Cn2nnc3c(=O)[nH]c(C4CCN(C(=O)c5ccc(C)cc5)CC4)nc32)cc1OC | -25%
Cc1ccc(NC(=O)c2sc3nc[nH]c(=O)c3c2C)cc1C | -58%
Cc1cc(N2CCCCC2)nc2ccc(NC(=O)c3cccc(F)c3)cc12 | 12%
Cc1ccc(CNC(=O)c2cccc(-n3cnc4cccnc43)c2)cc1 | -3%
Cc1cc(NC(=O)c2ccc(Cl)c(Cl)c2)ccc1-c1cc2ccccc2oc1=O | -2%
Cc1nc2ccn(Cc3cccnc3)c(=O)c2cc1C(=O)Nc1ccc(OC(F)(F)F)cc1 | 5%
COc1cc(N2C(=O)CSC23C(=O)N(Cc2cccc(F)c2)c2ccccc23)cc(OC)c1OC (stereo not given) | 0%
CCc1ccc(CNC(=O)c2cc3cc(S(=O)(=O)N4CCCCC4)ccc3n2C)cc1 | 17%

Other records
SMILES | miR-21 reporter
COc1cccc(C(=O)c2cn(CC(=O)Nc3cccc(C(F)(F)F)c3)c3nc(C)ccc3c2=O)c1 | 13%
COc1cccc(Cn2c(SCc3ccc(C(=O)N4CCC(C)CC4)cc3)nc3ccncc32)c1 | ?
O=S(=O)(c1cccc(Cl)c1)c1nnn2c1nc(NC1CCCC1)c1sccc12 | -22%
Cc1cc(N2CCN(C)CC2)nc2ccc(NC(=O)Nc3ccccc3Cl)cc12 | -63%
COc1ccc(OCc2ccc(-c3nc(C#N)c(N4CCN(C)CC4)o3)o2)cc1 | 0%
CCCCCN1C(C(=O)c2ccccc2)=C(NC(=O)c2ccc(C)cc2)c2ccccc2S1(=O)=O | ?
Fc1ccc(-c2cn3cc(Cc4ccccc4)sc3n2)cc1 | 29%
CCCn1c(-c2ccc(S(=O)(=O)N3CCOCC3)cc2)csc1=Nc1ccc(OCC)cc1 | -1%
Cc1ccc2nc(NC(=O)CSc3nccn3Cc3ccc(F)cc3)sc2c1 | 0%
COc1cccc(CNC(=O)c2ccc(-c3nc(COc4ccccc4)c(C)o3)cc2)c1 | 18%
COc1cccc2c1cc1c(=O)n(CC(=O)N3CCN(c4ccc(Cl)cc4)CC3)nc(C)n12 | -5%
COc1ccc(Cl)cc1-n1c(CCC(=O)O)ccc1-c1ccc(C)cc1 | -8%
CC1=C(C(=O)Nc2ccc(C)cc2)C(c2ccccc2Cl)n2nnnc2N1 (stereo not given) | -8%
CCN(CC)C(=O)c1ccc2c(c1)N(Cc1ccc(C(F)(F)F)cc1)C(=O)c1ccccc1S2 | 23%
Cc1cc(C)c(/C=C/c2onc(C)c2S(=O)(=O)N2CCC(C(=O)NCC(C)c3ccccc3)CC2)c(C)c1 (stereo not given) | 3%
Cc1ccc(CN2c3ccccc3S(=O)(=O)c3ccccc32)cc1 | ?
O=c1cc(-c2ccccc2)nc(SCc2nc(-c3cccc(C(F)(F)F)c3)no2)[nH]1 | -5%
Cc1ccc(CC(=O)Nc2c(C(=O)N3CCN(c4ccccc4)CC3)oc3ccccc23)cc1 | 11%
COC(=O)c1ccc2c(c1)N(CC(=O)Nc1cccc(C(F)(F)F)c1)C(=O)c1ccccc1S2 | -1%
O=S(=O)(NCCc1csc2nc(-c3ccc(F)cc3)nn12)c1ccc2c(c1)OCCO2 | ?
COc1ccc(CCNS(=O)(=O)c2c(C)nc3sc(C)cn3c2=O)cc1OC | 0%
Cc1ccc(S(=O)(=O)c2cn(Cc3cccc(F)c3)c3cc(N4CCCC4)c(F)cc3c2=O)cc1 | -5%
CCCOc1ccc(/C=C/C(=O)Nc2sc3c(c2C(=O)OCC)CCC(C)C3)cc1OC (stereo not given) | 0%
Cc1ccc(C(=O)NCC(c2ccco2)S(=O)(=O)c2ccccc2)cc1C (stereo not given) | -11%
CC1=C(C(=O)Nc2ccc(C)cc2C)C(c2ccc[nH]2)n2ncnc2N1 (stereo not given) | -1%

Further entries follow:
SMILES | miR-21 reporter
Cc1cc(C)c(NC(=O)CSc2nccn2Cc2ccco2)c(C)c1 | -49%
COc1ccc(CC(=O)N2CCc3cc(OC)c(OC)cc3C2COc2ccc(F)cc2)cc1 (stereo not given) | 3%
CCOC(=O)Cn1c(=O)oc2cc(S(=O)(=O)NCc3ccc(F)cc3)ccc21 | -3%
O=C(Nc1c2c(nn1-c1ccc(Cl)cc1)CS(=O)(=O)C2)c1cccc(F)c1 | 8%
CCOC(=O)c1c(C)oc2ccc(N(C(=O)c3ccncc3)S(=O)(=O)c3ccc(F)cc3C)cc12 | 16%
Cc1ccc(S(=O)(=O)c2nnn3c2nc(NCc2ccc(F)cc2)c2sccc23)cc1C | -11%
Cc1nc(-c2ccccc2)sc1CCNC(=O)C(=O)Nc1ccc2c(c1)OCCO2 | -6%
O=C(c1ccccc1Br)N(Cc1ccco1)Cc1ccco1 | 7%
COc1ccc(-c2c(C#N)c(SCC(=O)Nc3ccc(C)c(C)c3)nc(C)c2C(=O)Nc2ccccc2)cc1OC | -5%
Cc1cc2n(n1)CCCN2C(=O)Nc1cccc(C)c1C | -1%
Cc1ccccc1Cn1c(C)c(CNCc2ccccc2)c(C(=O)O)c1C | -4%
COc1ccccc1CNCC(c1ccccc1)c1ccccc1 | 3%
CCc1ccc(NC(=O)CC2C(=O)N(c3cccc(OC)c3)C(=O)N2C2CCCC2)cc1 (stereo not given) | 8%
O=C(NCc1ccccc1)C(=O)Nc1c2c(nn1-c1ccccc1)CSC2 | -1%
COc1ccc(Cc2nc3ccc(C(=O)NCc4ccccc4Cl)cc3o2)cc1 | -4%
CCOC(=O)c1noc2ncn(CC(=O)Nc3ccc(F)cc3Cl)c(=O)c12 | -2%
COCCNC(=O)c1c(C)oc2nc(C)nc(N3CCOCC3)c12 | -1%
CC(C)c1nn2c(=O)cc(COC(=O)c3cccc(NC(=O)COc4ccc(F)cc4)c3)nc2s1 | -13%
O=C(c1cccn1-c1nnc(N2CCCC2)s1)N1CCN(c2ccc(Cl)cc2)CC1 | -4%
COc1ccc(CCNC(=O)c2cnn(-c3cccc(C)c3)c2C2CCN(C(=O)OC(C)(C)C)CC2)cc1OC | 6%
Cc1cc(C)c(Cn2c(=O)n(CCC(=O)NCCc3ccccc3)c(=O)c3ccccc32)c(C)c1 | -2%
CCOC(=O)C1CCCN(C(=O)c2cc3c(=O)n(C)c4ccccc4c3s2)C1 (stereo not given) | 9%
COc1ccc2c(c1)c1c(c(=O)n(CCc3ccccc3)c(=O)n1Cc1ccccc1)n2C | 0%
Cc1ccc2c(CC(=O)N3CCN(c4cccc(Cl)c4)CC3)coc2c1C | -4%
COc1ccccc1NC(=O)CSc1oc(-c2cccs2)nc1S(=O)(=O)c1ccccc1 | 9%

(more compounds)
SMILES | miR-21 reporter
Cc1cccc2sc(N(Cc3cccnc3)C(=O)C3COc4ccccc4O3)nc12 (stereo not given) | 3%
Cc1ccc(-n2ncc(C(=O)NCCc3ccccc3)c2C2CCN(C(=O)OC(C)(C)C)CC2)c(C)c1 | 13%
Cc1ccc(C(=O)Nc2nc3n(n2)C(c2ccc(F)cc2)C=C(c2ccccc2)N3)cc1 (stereo not given) | -3%
COc1cccc(-c2nnc3n(Cc4ccc(F)cc4)c(=O)c4ccccc4n23)c1 | -4%
CCc1ccccc1NC(=O)CC(C)n1nc(C)cc1C (stereo not given) | -1%
CC(=O)Nc1ccc(S(=O)(=O)N2CCC(n3c(C(F)(F)F)nc4cccnc43)CC2)cc1 | 4%
CC(=O)N1CCC(N(Cc2ccc(C)o2)C(=O)Nc2ccc(C)cc2)CC1 | -17%
CC1(C)CC(=O)c2c(oc3c(Cl)cc(NS(=O)(=O)c4ccc(Cl)cc4)cc23)C1 | 2%

In the list so far, 12 have a thiophene ring, fused or not.
SMILES | miR-21 reporter
CCc1ccccc1NC(=O)Cn1nnc2sc3c(c2c1=O)CCC(C(C)(C)C)C3 (stereo not given) | -1%
CC1CCc2c(sc3nc(-c4cc5ccccc5oc4=O)nc(Cl)c23)C1 (stereo not given) | -10%
COc1cc(Cl)c(C)cc1NC(=O)c1cc2c(s1)-c1c(C)cccc1OC2 | -4%
Cc1ccc(-n2c(SCCC(C)C)nc3sc4c(c3c2=O)CC(C)(C)OC4)cc1 | 0%
Cc1cc(C)cc(Nc2nc3c(S(=O)(=O)c4cccc(Cl)c4)nnn3c3ccsc23)c1 | -3%
O=C(O)Cn1c(-c2cccs2)cc2cc(Cl)ccc21 | -4%
Cc1ccc(NC(=O)c2sc3nc[nH]c(=O)c3c2C)cc1C | -58%
O=S(=O)(c1cccc(Cl)c1)c1nnn2c1nc(NC1CCCC1)c1sccc12 | -22%
CCCOc1ccc(/C=C/C(=O)Nc2sc3c(c2C(=O)OCC)CCC(C)C3)cc1OC (stereo not given) | 0%
Cc1ccc(S(=O)(=O)c2nnn3c2nc(NCc2ccc(F)cc2)c2sccc23)cc1C | -11%
CCOC(=O)C1CCCN(C(=O)c2cc3c(=O)n(C)c4ccccc4c3s2)C1 (stereo not given) | 9%
COc1ccccc1NC(=O)CSc1oc(-c2cccs2)nc1S(=O)(=O)c1ccccc1 | 9%

High-throughput results as filed in PubChem BioAssay.

This is a subset; the hit share may differ from the screen's.
